# From PubChem BioAssay
# FGF22 binding: FGF22 (human) thermal shift binding; recombinant FGF22 thermal shift, SYPRO orange fluorescence; percent of sucrose octasulfate shift, DMSO zero; AID 651658; calls only at 9.99 µM; actives 1.5% (n = 340,000); Q9HCT0;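 active means melting point raised past a set limit in the mean and every replicate; three in four hits are not shown here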
# Target sequence (Q9HCT0 whole entry, looked up): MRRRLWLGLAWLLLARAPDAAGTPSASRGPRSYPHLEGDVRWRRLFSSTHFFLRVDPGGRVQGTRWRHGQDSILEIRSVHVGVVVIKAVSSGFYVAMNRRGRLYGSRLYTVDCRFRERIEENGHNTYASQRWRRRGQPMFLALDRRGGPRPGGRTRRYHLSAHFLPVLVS
# rRNA inh HTS: inhibitors of bacterial rRNA selective over humanized ribosomes; actives 1.6% (n = 350,000); E. coli WT GFP vs humanized-ribosome RFP mutants, fluorescence, 24 h; active compounds read low; DMSO median 0, no signal -100; GFP signal change (wild-type ribosome), % (concentration not given with the values); AID 720706;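 active means significant combined selectivity score with lowered wild-type GFP, culture density cut under 30%, mutant RFP and density less affected; inactive means any of these conditions unmet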; further: one replicate is shown; some compounds called inactive have numbers as strong as hits
# rRNA inh HTS OD600: further read-out of rRNA inh HTS, marked with its call; OD600 change, %; measured here: OD600 growth;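 optical density of the mix in the first replicate; 0 = DMSO median and -100 = no signal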
# rRNA inh HTS RFP: also measured in rRNA inh HTS; calls as there; RFP signal change, %; measured here: RFP humanized mutant strains;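 first replicate; 0 = DMSO median and -100 = no signal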
# * marks the source's active call; other numbers are inactive results; i = inactive.
# Field names – A = FGF22 binding; B = rRNA inh HTS; C = rRNA inh HTS OD600; D = rRNA inh HTS RFP
mol: COc1ccc(NC(=O)Nc2ccc3c(c2)C(=O)N([C@@H](C)CO)C[C@H](C)[C@@H](CN(C)S(=O)(=O)c2ccc(F)cc2)OCCCC[C@H](C)O3)cc1
  A: i; B: 3; C: 8; D: 0.3
mol: COC(=O)[C@H]1[C@H](CO)[C@H]2Cn3c(ccc(-c4ccc(F)cc4)c3=O)[C@H]2N1Cc1ccccn1
  A: i; B: -2; C: -3; D: 3.5
mol: CNC[C@H]1OCCCC[C@H](C)Oc2ccc(NC(=O)NC3CCCCC3)cc2C(=O)N([C@H](C)CO)C[C@@H]1C
  A: i; B: 5; C: 10; D: -0.4
mol: CCC(=O)N1[C@H](CO)[C@H](c2ccccc2)C12CN(C(=O)CN1CCOCC1)C2
  A: i; B: 2; C: 13; D: -1.1
mol: COCC(=O)Nc1ccc2c(c1)C(=O)N(C)C[C@H](OC)[C@H](C)CN(CCC(F)(F)F)[C@@H](C)CO2
  A: i; B: 1; C: -2; D: -2.7
mol: CCCNC(=O)Nc1ccc2c(c1)OC[C@H](C)N(C)C[C@H](C)[C@@H](OC)CN(C)C2=O
  A: i; B: 1; C: 9; D: -0.3
mol: CC(C)NC(=O)Nc1ccc2c(c1)CC(=O)N([C@@H](C)CO)C[C@@H](C)[C@H](CN(C)C(=O)Nc1ccc3c(c1)OCO3)O2
  A: i; B: 5; C: 5; D: -0.1
mol: Cc1ccc(S(=O)(=O)N[C@H]2CC[C@H](CCn3cc(C4CCCC4)nn3)O[C@H]2CO)cc1
  A: i; B: 0; C: -7; D: -0.8
mol: Cc1noc(C)c1NC(=O)N[C@@H]1C=C[C@@H](CC(=O)NCCCN(C)C)O[C@H]1CO
  A: i; B: -2; C: -6; D: 0.3
mol: CCC(=O)N1[C@@H](CO)[C@@H](c2ccccc2)[C@@H]1CN(CC)C(=O)c1ccccc1
  A: i; B: 0; C: 5; D: 0.9
mol: O=C(c1cccnc1)N1CC(=O)N2[C@H](C1)[C@H](c1ccc(C#CCC3CCCC3)cc1)[C@@H]2CO
  A: i; B: -14; C: -55; D: 9.6
mol: C[C@H](NC(=O)[C@H]1[C@H](CO)[C@H]2Cn3c(cccc3=O)[C@@H]1N2Cc1cccnc1)c1ccccc1
  A: i; B: 2; C: 1; D: -1.4
mol: COc1ccccc1NC(=O)Nc1ccc2c(c1)C(=O)N(C)C[C@H](OC)[C@H](C)CN(C)[C@@H](C)CO2
  A: i; B: 1; C: -6; D: 0.3
mol: C[C@H]1CN([C@@H](C)CO)C(=O)Cc2cc(NC(=O)CCCCCC(=O)Nc3ccccc3N)ccc2O[C@@H]1CN(C)C
  A: i; B: -3; C: 4; D: -1.6
mol: CCS(=O)(=O)N1CCCCN2[C@H](CO)[C@@H](c3ccc(C#Cc4ccccc4OC)cc3)[C@@H]2C1
  A: i; B: 1; C: -7; D: 25
mol: C[C@@H]1CCCCO[C@@H](CN(C)C(=O)Nc2ccc(C(F)(F)F)cc2)[C@H](C)CN([C@H](C)CO)C(=O)c2cc(NC(=O)Nc3cccc4ccccc34)ccc2O1
  A: i; B: 4; C: 0; D: -2.7
mol: CC(C)CC#Cc1ccc([C@H]2[C@H](CO)N3CCCCN(S(=O)(=O)Cc4ccccc4)C[C@@H]23)cc1
  A: i; B: -56; C: -63; D: 0.6
mol: C[C@H]1CN([C@@H](C)CO)C(=O)c2cccc(NS(C)(=O)=O)c2O[C@H]1CN(C)C(=O)Nc1ccc(C(F)(F)F)cc1
  A: i; B: -6; C: 0; D: 0.7
mol: O=C(C[C@@H]1C=C[C@H](NC(=O)Nc2ccccc2)[C@H](CO)O1)NCc1ccccn1
  A: i; B: 2; C: -4; D: -1.5
mol: O=C(Cc1ccccc1)N1C[C@@H]2[C@H](c3ccccc31)[C@H](CO)N2C(=O)C1CCCCC1
  A: i; B: -1; C: 2; D: -2.5
mol: O=C(NCC[C@H]1CC[C@H](NC(=O)C2CCC2)[C@@H](CO)O1)c1ccc(F)cc1
  A: i; B: -1; C: -3; D: 0.4
mol: CN(C)C(=O)C[C@@H]1C[C@@H]2c3cc(NC(=O)NC4CCCC4)ccc3O[C@@H]2[C@@H](CO)O1
  A: i; B: 1; C: 5; D: -0.1
mol: C[C@H](CO)N1C[C@H](C)[C@H](CN(C)Cc2cncnc2)Oc2cc(-c3cncnc3)ccc2S1(=O)=O
  A: i; B: 0; C: -4; D: -1.7
mol: CC(C)C#Cc1cnc2c(c1)C(=O)N([C@@H](C)CO)C[C@@H](C)[C@H](CN(C)C(=O)C1CCC1)O2
  A: i; B: -4; C: -12; D: -5.4
mol: C[C@@H]1CN([C@@H](C)CO)C(=O)c2cc(NC(=O)NC3CCCCC3)ccc2O[C@@H](C)CCCCO[C@@H]1CN(C)Cc1ccncc1
  A: i; B: -3; C: -5; D: -1.0

# 3 of the compounds above, bar-delimited:
smiles | FGF22 binding | rRNA inh HTS | rRNA inh HTS OD600 | rRNA inh HTS RFP
CCC(=O)N1[C@@H](CO)[C@@H](c2ccccc2)[C@@H]1CN(CC)C(=O)c1ccccc1 | i | 0 | 5 | 0.9
O=C(c1cccnc1)N1CC(=O)N2[C@H](C1)[C@H](c1ccc(C#CCC3CCCC3)cc1)[C@@H]2CO | i | -14 | -55 | 9.6
C[C@H](NC(=O)[C@H]1[C@H](CO)[C@H]2Cn3c(cccc3=O)[C@@H]1N2Cc1cccnc1)c1ccccc1 | i | 2 | 1 | -1.4

# Going on with the list.
# Field names – A = FGF22 binding; B = rRNA inh HTS; C = rRNA inh HTS OD600; D = rRNA inh HTS RFP
mol: Cc1noc(C)c1S(=O)(=O)Nc1ccc2c(c1)CC(=O)N([C@H](C)CO)C[C@H](C)[C@H](CN(C)Cc1ccc(C(=O)Nc3ccccc3N)cc1)O2
  A: i; B: 0; C: -17; D: -0.1
mol: COCC(=O)Nc1ccc2c(c1)OC[C@@H](C)N(Cc1ccccc1F)C[C@@H](C)[C@H](OC)CN(C)C2=O
  A: i; B: -2; C: -5; D: -0.2
mol: CC1C=NC(S(=O)(=O)N2CC[C@@H]3[C@H](CO)N(C)c4ccc(-c5ccccc5)cc4[C@@H]32)=N1 (stereo partly drawn)
  A: i; B: -1; C: -3; D: -0.5
mol: COCC(=O)Nc1ccc2c(c1)C(=O)N(C)C[C@H](OC)[C@H](C)CN(C(=O)CC1CC1)[C@@H](C)CO2
  A: i; B: 1; C: 1; D: -1.4
mol: C[C@H]1CN([C@@H](C)CO)C(=O)c2cc(NC(=O)CCC(F)(F)F)ccc2O[C@H]1CN(C)Cc1ccc(C(=O)O)cc1
  A: i; B: 2; C: 7; D: -2.1
mol: CN(C)c1ccc2c(c1)[C@@H]1C[C@H](CC(=O)NCc3ccc(Oc4ccccc4)cc3)O[C@@H](CO)[C@@H]1O2
  A: i; B: -7; C: -24; D: 3.1
mol: Cc1ccc(S(=O)(=O)N(C)C[C@@H]2Oc3ccc(NC(=O)C4CCCCC4)cc3CC(=O)N([C@@H](C)CO)C[C@@H]2C)cc1
  A: i; B: -1; C: 1; D: 0.6
mol: C[C@H](CO)N1C[C@H](C)[C@H](CN(C)C(=O)Nc2ccccc2)Oc2ccc(NS(=O)(=O)c3cn(C)cn3)cc2C1=O
  A: i; B: -1; C: 6; D: -1.9
mol: C[C@@H]1CCCCO[C@@H](CN(C)C(=O)Nc2ccc(C(F)(F)F)cc2)[C@H](C)CN([C@H](C)CO)C(=O)c2cc(NS(=O)(=O)c3cccs3)ccc2O1
  A: i; B: 5; C: 5; D: 1.2
mol: Cn1cnc(CCNC(=O)C[C@H]2CC[C@@H]3[C@H](COC[C@@H](O)CN3C(=O)Nc3ccc(F)cc3)O2)c1
  A: i; B: 4; C: 18; D: -0.9
mol: C[C@@H]1CN([C@H](C)CO)C(=O)c2cc(NC(=O)C3CC3)ccc2O[C@H]1CN(C)Cc1ccc2c(c1)OCO2
  A: i; B: 2; C: -3; D: -1.2
mol: COc1ccc(NC(=O)Nc2ccc3c(c2)CC(=O)N([C@@H](C)CO)C[C@H](C)[C@H](CN(C)S(=O)(=O)c2c(C)noc2C)O3)cc1
  A: i; B: 1; C: -10; D: 0.9
mol: CN(Cc1ccccc1)C(=O)c1ccc(NC(=O)Cc2ccc(NC(=O)C3CCN(C(=O)C4CC4)CC3)cc2)cc1
  A: i; B: -3; C: 17; D: 2.2
mol: C[C@H]1CN([C@@H](C)CO)C(=O)Cc2cc(NS(=O)(=O)c3ccc(F)cc3)ccc2O[C@@H]1CN(C)Cc1ccc(C(=O)O)cc1
  A: i; B: -1; C: 0; D: -7.3
mol: CC(=O)N(C)C[C@H]1Oc2ncc(-c3cccc(C#N)c3)cc2C(=O)N([C@H](C)CO)C[C@@H]1C
  A: i; B: -1; C: 4; D: -2.8
mol: COc1ccc2c3c(n(C)c2c1)[C@H](CO)N(C(C)=O)CC31CN(Cc2ccccc2OC)C1
  A: i; B: 0; C: 7; D: 0.5
mol: Cc1ccc(OCCNC(=O)[C@@H](Cc2ccccc2)NC(=O)[C@H]2O[C@@H](n3ccc(=O)[nH]c3=O)[C@H](O)[C@@H]2O)cc1C
  A: i; B: 8; C: 3; D: 2.0
mol: CO[C@H]1CC[C@@H]2CCOc3ccc(C#N)cc3C(=O)N(C)C[C@H](OC)[C@@H](C)C(=O)N(C)C[C@@H]1O2
  A: i; B: -1; C: 12; D: -0.8
mol: Cc1ccc(S(=O)(=O)N(C)C[C@H]2Oc3ccc(NC(=O)Nc4ccccc4)cc3C(=O)N([C@@H](C)CO)C[C@H]2C)cc1
  A: i; B: -1; C: -21; D: -4.4
mol: COc1cccc(S(=O)(=O)Nc2ccc3c(c2)C(=O)N(C)[C@H]2CC[C@@H](CC(=O)O)O[C@@H]2CO3)c1
  A: i; B: 3; C: 7; D: -2.0
mol: C[C@@H]1CN([C@H](C)CO)S(=O)(=O)c2ccc(C#C[C@@H](C)O)cc2O[C@@H]1CN(C)C(=O)C1CCC1
  A: i; B: 2; C: 9; D: -1.2
mol: C[C@H]1CN([C@@H](C)CO)C(=O)c2cc(C#CC3(O)CCCC3)cnc2O[C@H]1CN(C)C(=O)Cc1ccncc1
  A: i; B: 3; C: 19; D: -5.1
mol: C[C@H](O)C#Cc1ccc2c(c1)O[C@@H](CN(C)Cc1ccncc1)[C@H](C)CN([C@H](C)CO)S2(=O)=O
  A: i; B: -3; C: -18; D: 1.6
mol: C[C@@H]1CN([C@@H](C)CO)C(=O)c2cc(C3=CCCC3)cnc2O[C@@H]1CN(C)C(=O)c1ccncc1
  A: i; B: 4; C: 4; D: -0.4
mol: COc1ccc(-c2cnc3c(c2)C(=O)N([C@H](C)CO)C[C@H](C)[C@H](CN(C)S(=O)(=O)c2cccc(F)c2)O3)cc1
  A: i; B: 1; C: 0; D: 6.2
mol: CCCNC(=O)N1[C@H](CO)[C@@H]2c3ccccc3N(C(=O)C3CC3)C[C@@H]21
  A: i; B: 6; C: 6; D: 0.1
mol: C[C@@H]1CCCCO[C@H](CN(C)CC2CCCCC2)[C@H](C)CN([C@@H](C)CO)C(=O)c2cc(NC(=O)NC3CCCCC3)ccc2O1
  A: i; B: 4; C: 3; D: 0.9
mol: C[C@H](CO)N1C[C@H](C)[C@@H](CN(C)Cc2ccccn2)Oc2ncc(-c3ccc(C#N)cc3)cc2C1=O
  A: i; B: 2; C: 4; D: -1.8
mol: O=C(C[C@@H]1CC[C@H](NS(=O)(=O)c2ccc(F)cc2)[C@@H](CO)O1)NCCN1CCCCC1
  A: i; B: 1; C: 5; D: 0.1
mol: CC(C)NC(=O)N1CC[C@@H]2[C@@H](CO)N(C)c3ccc(Br)cc3[C@@H]21
  A: i; B: -3; C: -1; D: 0.1
mol: CCC(=O)Nc1ccc2c(c1)OC[C@@H](C)N(Cc1ccccn1)C[C@H](C)[C@@H](OC)CN(C)C2=O
  A: i; B: 0; C: 10; D: -2.4
mol: COc1cccc(-c2cn(CC[C@H]3CC[C@H](NS(=O)(=O)Cc4ccccc4)[C@@H](CO)O3)nn2)c1
  A: i; B: -5; C: -2; D: 1.2
mol: CO[C@H](CN(C)C(=O)C1CCOCC1)[C@H](C)CN([C@H](C)CO)S(=O)(=O)c1ccccc1
  A: i; B: -2; C: 16; D: 3.3
mol: COc1ccc(S(=O)(=O)N[C@H]2CC[C@@H](CC(=O)NCCc3ccccc3)O[C@H]2CO)cc1
  A: i; B: -2; C: 5; D: 0.7
mol: CO[C@H]1CC[C@H]2CCOc3c(C#N)cccc3C(=O)N(C)[C@@H](C)C(=O)N(C)C[C@@H]1O2
  A: i; B: 0; C: 2; D: -0.7
mol: COc1ccc(S(=O)(=O)N(C)C[C@@H]2OCCCC[C@H](C)Oc3ccc(NC(=O)Nc4ccc(F)cc4)cc3C(=O)N([C@H](C)CO)C[C@@H]2C)cc1
  A: i; B: 1; C: 4; D: 0.7
mol: C[C@@H]1CN([C@@H](C)CO)C(=O)c2cccc(NC(=O)C3CCOCC3)c2O[C@@H]1CN(C)S(C)(=O)=O
  A: i; B: 5; C: 3; D: -0.9
mol: CN1C(=O)c2cc(NS(=O)(=O)c3ccc(F)cc3)ccc2OC[C@@H]2O[C@H](CC(=O)O)CC[C@H]21
  A: i; B: 0; C: 4; D: -2.5
mol: CC=Cc1ccc2n(c1=O)C[C@@H]1[C@@H](CO)[C@H](C(=O)NCCC)[C@H]2N1Cc1cccnc1 (mixture of isomers)
  A: i; B: 4; C: 5; D: -2.0
mol: CC(C)NC(=O)Nc1ccc2c(c1)C(=O)N(C)[C@H]1CC[C@H](CC(=O)NCC3CCCCC3)O[C@H]1CO2
  A: i; B: -1; C: -3; D: 0.1
mol: COc1ccc(S(=O)(=O)Nc2ccc3c(c2)C(=O)N([C@H](C)CO)C[C@H](C)[C@@H](CN(C)S(=O)(=O)c2ccc(Cl)cc2)O3)cc1
  A: i; B: -2; C: -13; D: 0.6

# Only part of the results is shown, so the mix of outcomes need not match the whole.
